High-throughput results (PubChem BioAssay)
HSV replic up: enhancers of HSV replication in host cells, fold increase, host cell viability. HSV replication augmentation in cells. AID 1956, 2009. maximum fold increase. hit rate 0.005% among 220,000;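 active = peak rise of 1.5-fold or more in the series; inconclusive = self-fluorescent or not available for retest; tested in PC3 cells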;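 also: first round at 10 µM; read as green reporter fluorescence; hits show the peak of a series up to 25 µM; 1 = signal of infected wells without compound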
RGS16-Gao: modulators of RGS16 binding to Galphao, primary screen, biochemical, human proteins, multiplexed bead flow cytometry; Regulator of G-protein signaling 16 (Homo sapiens) + Guanine nucleotide-binding protein …; bead-based flow cytometry RGS16-Galphao binding, fluorescence; actives lie on both sides; binding response (% of control), % at 10 µM; hit rate 0.38% among 220,000; AID 1441, 2008;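 active = below 25% or above 175%, edge rows of some plates excepted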;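 also: Galphao activated by GDP with aluminum fluoride before binding; 100% = wells without compound and 0% = beads without RGS; some results beyond the cut were filed as inactive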
Target sequence (O15492 whole entry, looked up): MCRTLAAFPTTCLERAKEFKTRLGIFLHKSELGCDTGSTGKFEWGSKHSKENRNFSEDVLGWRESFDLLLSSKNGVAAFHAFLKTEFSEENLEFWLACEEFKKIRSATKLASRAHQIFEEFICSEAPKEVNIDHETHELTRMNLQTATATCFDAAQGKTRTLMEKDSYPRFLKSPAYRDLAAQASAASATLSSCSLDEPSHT
Target sequence (P09471 whole entry, looked up): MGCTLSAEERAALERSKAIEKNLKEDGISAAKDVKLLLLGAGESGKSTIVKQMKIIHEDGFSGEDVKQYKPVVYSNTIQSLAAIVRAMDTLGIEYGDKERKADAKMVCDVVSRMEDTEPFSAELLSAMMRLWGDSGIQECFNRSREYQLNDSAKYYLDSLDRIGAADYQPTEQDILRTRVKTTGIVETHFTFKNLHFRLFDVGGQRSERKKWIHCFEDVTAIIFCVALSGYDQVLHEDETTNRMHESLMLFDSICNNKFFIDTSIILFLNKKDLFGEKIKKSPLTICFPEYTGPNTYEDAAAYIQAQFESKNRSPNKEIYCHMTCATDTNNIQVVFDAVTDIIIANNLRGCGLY
GALR2 agonist: GALR2 receptor agonists, primary screen, cell-based; Galanin receptor type 2 (Homo sapiens), O43603; GALR2-expressing cells, agonist activation read-out; activation, %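 (tested at 5 µM)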; hit rate 0.48% among 140,000;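 active = above mean plus 3 SD of all compounds, about 5% in these data, not always enough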;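 also: 0% = vehicle buffer wells and 100% = reference agonist at full effect; tested in CHO reporter cells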
Target sequence (O43603 whole entry, looked up): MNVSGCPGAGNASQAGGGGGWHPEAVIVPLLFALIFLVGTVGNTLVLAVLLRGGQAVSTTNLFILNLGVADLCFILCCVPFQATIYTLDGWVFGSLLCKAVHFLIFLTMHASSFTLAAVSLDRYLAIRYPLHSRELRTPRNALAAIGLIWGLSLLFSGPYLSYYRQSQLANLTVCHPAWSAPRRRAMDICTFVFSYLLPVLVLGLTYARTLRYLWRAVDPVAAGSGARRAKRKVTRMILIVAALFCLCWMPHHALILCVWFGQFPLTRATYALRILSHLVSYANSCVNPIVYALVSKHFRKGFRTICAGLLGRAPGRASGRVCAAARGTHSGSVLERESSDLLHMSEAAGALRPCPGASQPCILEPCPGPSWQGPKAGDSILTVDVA
INS promoter inh: inhibitors of insulin promoter-driven GFP, primary screen, imaging, TRM-6 cells (human fetal islet line), eGFP reporter, cell count; AID 1273, 2008; hit rate 0.9% among 130,000; inhibition, % at 2 µM; reporter expression induced with tamoxifen;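 active = inhibition above the mean plus 3 SD, with well images judged a real hit on visual review, cut at about 60% in these data, passing the limit was not always enough; inconclusive = inhibition over the cutoff but images rejected on review; inactive = inhibition not above the cutoff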
PKD1 kinase inh: inhibitors of human PKD1 kinase, biochemical, fluorescence polarization. Serine/threonine-protein kinase D1 (Homo sapiens), Q15139. PKD1 kinase fluorescence polarization assay. inhibition, %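 (about 10 µM by stock and volumes)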. hit rate 0.056% among 200,000. AID 797, 2007;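 active = inhibition of 50% or more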;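 also: controls were vehicle for no effect and a reference inhibitor for full effect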
INS promoter inh cell count: also measured in INS promoter inh; calls as there; normalized cell count, %; measured here: cell count, toxicity; reference of the scale not given here;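 cells exposed to compound for 48 h; stained nuclei by imaging scaled within each plate; lower means fewer cells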
HSV replic up primary fold: further read-out of HSV replic up, marked with its call; fold increase; compound at 10 µM; measured here: primary screen fold increase 10 uM; tested in PC3 cells;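 GFP signal in the first replicate; 1 = infected wells without compound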
* = called active by the depositor; i = inactive; ? = inconclusive; nt = no result given.

structure,RGS16-Gao,INS promoter inh,INS promoter inh cell count,HSV replic up primary fold,PKD1 kinase inh,HSV replic up,GALR2 agonist
CC(=O)N=c1sc(S(N)(=O)=O)nn1C,85,32,95,1.1,0,i,-0.7
COc1cc(C2NC(=O)c3ccccc3O2)cc(OC)c1OC (stereo unspecified),100,18,110,0.91,-4,i,-2.6
O=C(O)CCC(=O)Nc1ccccc1C(=O)NCc1ccccc1,102,-15,120,0.81,2,i,-1.1
Cc1ccc2nc(NCc3ccccc3)c(C=O)c(=O)n2c1,102,53,152,0.99,8,i,-0.6
CCOC(=O)N1CCC(N2Cc3cccc(C(=O)NCc4ccc5c(c4)OCO5)c3C2=O)CC1,92,nt,nt,0.94,nt,i,nt
Cc1ccc(NC(=O)Cc2nnc(SCC(=O)c3ccc(Br)cc3)n2C)cc1Cl,100,-8,104,nt,0,nt,-1.8
CCOC(=O)C1(Cc2ccc(OC)cc2)CCN(C(=O)CCc2cnccn2)CC1,106,nt,nt,0.9,nt,i,nt
CN1CCCN(Cc2ccccc2C(F)(F)F)CC1,166,41,106,1.2,7,i,-0.9
Cc1snc(S(=O)(=O)Cc2ccccc2Cl)c1C#N,103,38,104,0.99,-3,i,-0.5
Cc1ccc(C(=O)N/C(=C\c2cccs2)c2nc3ccccc3[nH]2)cc1,108,4,110,0.98,1,i,-0.3
COc1ccc2c(c1)CCc1c-2n[nH]c1C(=O)O,101,-22,37,1.1,2,i,-1.0
CCOC(=O)c1sc2nc(-c3cccnc3)ccc2c1N,150,71*,95*,1,-4,i,nt
Cc1nc(-c2ccccc2)sc1C(N)=O,100,-236,37,0.94,7,i,-2.7
Cn1cccc1Cc1nnc(SCC(=O)N2CCOCC2)n1-c1ccc(F)cc1,103,nt,nt,0.97,-8,i,-0.1
CN(C(=O)c1ccccc1NC(=O)C(F)(F)F)c1ccccc1,101,-7,116,1.1,9,i,0.5
COc1ccccc1Nc1nc2ccc(C)cc2cc1C#N,94,13,108,nt,5,nt,0.0
O=C(NCC1COc2ccccc2O1)Nc1ccccc1F (stereo unspecified),93,nt,nt,1,-1,i,0.1
CSc1nsc(SC)c1NC(=O)Nc1ccccc1C,114,-20,130,1.1,-2,i,nt
O=C(NNc1c2ccccc2nc2ccccc12)c1ccccc1O,106,nt,nt,0.6,0,i,1.2
N#C/C(=C\c1ccc(N2CCOCC2)o1)C(=O)Nc1ccc(O)cc1,106,-400,134,nt,-17,?,nt

A second format for some results above.
Below each compound – RGS16-Gao	INS promoter inh	INS promoter inh cell count	HSV replic up primary fold	PKD1 kinase inh	HSV replic up	GALR2 agonist
Cc1nc(-c2ccccc2)sc1C(N)=O
 : 100	-236	37	0.94	7	i	-2.7
COc1cc(C2NC(=O)c3ccccc3O2)cc(OC)c1OC (stereo unspecified)
 : 100	18	110	0.91	-4	i	-2.6

(cont.)
structure,RGS16-Gao,INS promoter inh,INS promoter inh cell count,HSV replic up primary fold,PKD1 kinase inh,HSV replic up,GALR2 agonist
CCSc1nc2c(c(=O)[nH]c(=O)n2C)n1CC(O)COc1ccccc1C (stereo unspecified),102,-16,134,0.77,-9,i,0.9
O=C(NC(=S)N1CCc2ccccc21)c1ccco1,84,19,87,1.1,-8,i,nt
COc1ccc(CNC(=O)C2CC(c3cc(C(F)(F)F)cc(C(F)(F)F)c3)=NO2)cc1 (stereo unspecified),99,nt,nt,0.5,nt,i,nt
CCCOc1ccc(N2C(=O)CC(N3CCN(CCN=CC4=C(O)CC(C)(C)CC4=O)CC3)C2=O)cc1 (stereo unspecified),102,nt,nt,0.94,-6,i,nt
COC(=O)CN(c1ccc(OC)c(OC)c1)S(C)(=O)=O,103,-220,111,0.92,-3,i,-0.5
COc1ccc2sc(/C=C/c3ccccc3O)[n+](C)c2c1,100,-50,201,1.1,-4,i,nt
COc1ccc(C(c2nnnn2Cc2ccccc2)N2CCN(c3nc4ccccc4s3)CC2)cc1 (stereo unspecified),104,nt,nt,0.85,-9,i,-0.9
Cn1ccnc1SCC(=O)c1ccc2ccccc2c1,100,nt,nt,0.86,0,i,nt
CC(=O)C1(C)N(O)C(C)(C)C(c2cccs2)=[N+]1[O-] (stereo unspecified),98,48,126,1.1,-3,i,nt
OC(COCc1ccc2c(c1)OCO2)CN1CCN(Cc2ccccc2)CC1 (stereo unspecified),100,-9,76,0.89,-13,i,-2.0
Cc1ncc([N+](=O)[O-])n1CC(=O)Nc1ccc2c(c1)OCO2,103,nt,nt,1.1,-7,i,nt
CC1=C(C(=O)OCCOc2ccccc2)C(c2ccsc2)NC(=O)N1C (stereo unspecified),98,0,74,1,2,i,nt
CCCCOC(=O)c1ccc(NC(=O)c2cc(Cl)c(Cl)cc2C(=O)O)cc1,105,nt,nt,1.1,-7,i,nt
O=C(Nc1ccccc1C(=O)NCc1ccco1)c1ccccc1,103,nt,nt,0.89,10,i,-0.3
Cc1cccn2c(=O)c(C=NCCO)c(Nc3ccc(Cl)cc3)nc12,48,nt,nt,0.95,-7,i,nt
Cc1ccccc1N=Cc1cccc(O)c1O,90,0,57,1.1,-2,i,-3.3
Cc1ccc(NS(=O)(=O)c2cc(C(=O)N3CCc4ccccc4C3)ccc2Cl)cc1,101,-38,87,0.86,-5,i,-1.0
CC(=O)OC(COc1ccccc1)Cn1cnc2ccccc21 (stereo unspecified),94,-75,121,1,-3,i,nt
Fc1ccc(OCCCCN2CCOCC2)cc1,101,7,85,1,4,i,nt
CCOc1cc(C(c2c(C)[nH][nH]c2=O)c2c(C)[nH][nH]c2=O)ccc1OS(=O)(=O)c1ccc(C)cc1,100,nt,nt,0.82,-2,i,-1.9
COc1ccc(/C=N/NC(=O)CCN2CCN(c3ccccc3)CC2)c(OC)c1OC,100,nt,nt,1.1,3,i,-1.5
COc1ccc2c(c1)/C(=N/OC(=O)c1cccs1)CCC2,86,46,133,0.91,-8,i,nt
COc1ccc(N2CCN(C(=O)c3cc(N4C(=O)C5C6CCC(C6)C5C4=O)ccc3Cl)CC2)cc1 (stereo unspecified),101,-8,73,0.92,-1,i,-0.2
CC1(c2nnc(-c3ccc(Cl)cc3)o2)CC(c2cccc(Cl)c2)=NO1 (stereo unspecified),93,nt,nt,0.91,nt,i,nt
CCc1ccc(NC(=O)COC(=O)CCc2nc3cc(S(=O)(=O)N(CC)CC)ccc3n2C)cc1,111,nt,nt,1,-2,i,-1.8
C=CCc1cccc2cc(C(=O)OCC)c(=O)oc12,105,-7,71,0.91,3,i,-1.0
CC1=C/C(=N\S(=O)(=O)c2ccccc2)C(C(C)C)=CC1=O,97,nt,nt,0.84,-3,i,nt
CC(=O)NC(Cc1ccccc1)C(=O)N1CCN(C(=O)c2cccs2)CC1 (stereo unspecified),104,0,89,1,8,i,-1.3
O=C(Nc1cccc(F)c1)c1ccc(-c2ccccc2C(F)(F)F)o1,103,38,93,0.98,-11,i,-1.9
O=c1cc(CO)occ1OCc1c(F)cccc1Cl,84,nt,nt,0.96,-1,i,nt
CCOc1ccc2[nH]c(=O)c(CN(CC3COCCO3)C(=O)C3CC3)cc2c1 (stereo unspecified),106,45,113,nt,-7,nt,-1.3
CCn1ncc([N+](=O)[O-])c1C(=O)Nc1nc2cccc(C)c2s1,103,nt,nt,0.89,-8,i,nt
O=C(Nc1ccc2nc(-c3ccc4nc[nH]c4c3)[nH]c2c1)c1cccs1,106,50,150,0.91,0,i,0.3
O=C(NCc1nc2ccccc2[nH]1)c1cccc(S(=O)(=O)N2CCCC2)c1,97,23,88,nt,-3,nt,-2.3
CCC1(CC)Cc2ccccc2C(Nc2c(C)n(C)n(-c3ccccc3)c2=O)=N1,100,-11,104,0.92,6,i,-0.5
CSC(=S)N/N=C(\C)c1ccccc1,94,53,62,0.93,-5,i,nt
Cn1c(=O)c(Oc2cc(Cl)cc(Cl)c2)nc2ccccc21,111,19,174,0.99,-9,i,-2.1
c1ccc(CCN2CN(CCCN3CCOCC3)c3nc4ccccc4n3C2)cc1,101,48,123,1,-2,i,-3.3
CCOc1cccc(N2C(=O)CC(N3CCN(c4ccc(S(=O)(=O)CC)cc4)CC3)C2=O)c1 (stereo unspecified),98,-80,132,0.75,-5,i,-0.9
CCn1c2ccccc2c2cc(/C(C)=N/O)ccc21,104,16,175,nt,1,nt,-0.8
CC(C)(C)c1ccc(O)c(/C=N\O)c1,104,-21,115,1.1,-2,i,-1.3
COc1cccc(OCC(O)CN2CCN(c3ccccn3)CC2)c1 (stereo unspecified),103,-93,63,1.1,-4,i,-1.2
O=C(/C=C/c1ccccc1)N1CCN(Cc2nc3ccccc3c(=O)[nH]2)CC1,101,-23,135,0.85,-2,i,-0.5
Cc1ccc(-c2csc(SCC(=O)Nc3cc(C)on3)n2)cc1,105,55,124,0.8,-7,i,-1.8
COc1cccc(/C=c2\s/c(=C\C(=O)C(C)(C)C)[nH]c2=O)c1,122,10,151,0.77,1,i,nt
O=S(=O)(Nc1nc2ccccc2nc1Cl)c1ccc(F)cc1,107,nt,nt,0.83,nt,i,nt
CN=C(Nc1cc(C)nn1CCC#N)c1ccccc1,103,nt,nt,0.98,-1,i,-0.5
Cc1ccc(OCC(=O)Nc2ccc(N3CCOCC3)cc2)cc1,89,nt,nt,0.78,1,i,-1.5
COc1ccc(NC(=O)C2CCN(c3nnnn3-c3ccccc3)CC2)cc1,108,31,176,0.97,-7,i,0.0
Cc1ccc2cc(CN(Cc3ccco3)C(=S)NCC3CCCO3)c(=O)[nH]c2c1 (stereo unspecified),53,-33,93,1,0,i,nt
COc1ccc(NC(=S)N2CCC(N(C)CC3CCCO3)CC2)cc1 (stereo unspecified),100,3,105,0.97,8,i,0.7
Cc1ccccc1NC(=S)NNC(=O)c1ccncc1,100,14,109,1.1,-4,i,nt
N#Cc1ccc(-c2ccccc2)nc1SCCN1CCOCC1,106,-27,99,0.71,4,i,0.0
CC(C)(C)c1nc(SCC(=O)NCc2ccco2)c2ccccc2n1,99,19,106,0.98,0,i,-2.9
O=C(OCc1ccccc1)/C(=C/c1cccc2ccccc12)NC(=O)c1ccccc1,94,-15,84,1.2,-12,i,-2.1
Cc1ccc(-n2c(CCC(=O)O)ccc2-c2cccs2)cc1C,102,-8,179,1.1,-3,i,-1.1
COc1ccc(F)cc1C(=O)C1CCCN(Cc2ccc(Oc3ncccn3)cc2)C1 (stereo unspecified),106,nt,nt,1,3,i,nt
O=C1CCCN1c1ccc(S(=O)(=O)N2CCC(c3ccccc3)CC2)cc1,103,-350,81,0.85,-4,i,-2.7
CCOc1ccc(CCNC(=O)c2cccc(N3CCCC3=O)c2)cc1OCC,103,-47,52,0.79,-3,i,-0.9
Cc1ccc(-n2nnnc2SCC(=O)N2Cc3ccccc3CC2C(=O)O)cc1 (stereo unspecified),100,nt,nt,1.1,nt,i,nt

Next structures follow.
structure,RGS16-Gao,INS promoter inh,INS promoter inh cell count,HSV replic up primary fold,PKD1 kinase inh,HSV replic up,GALR2 agonist
O=S(=O)(NCCn1ccc2ccccc21)c1ccccc1,104,nt,nt,1.2,8,i,-1.7
COc1ccccc1-c1c(C)nn2c(NCCN3CCCC3)cc(C)nc12,105,nt,nt,0.88,-6,i,-2.5
COc1ccccc1NS(=O)(=O)c1ccc(O)c(NC(=S)NCC2CCCO2)c1 (stereo unspecified),93,nt,nt,0.97,nt,i,nt
CCN(CC)CCCNC(=O)/C=C/C(=O)O,93,nt,nt,0.88,nt,i,nt
CC(=O)Nc1cc(N2C(=O)CCC2=O)ccc1Cl,101,19,117,0.96,-8,i,-1.0
O=C(O)c1cc2cccc(S(=O)(=O)N3CCOCC3)c2cc1O,97,nt,nt,1.1,-2,i,-1.1
Cc1ccc(-c2noc(CCC(=O)NCCN3CCOCC3)n2)cc1,104,-53,94,0.91,-9,i,-3.1
COc1ccc2nc(NC(=O)CSc3nc4ccccc4o3)sc2c1,97,26,123,0.95,-4,i,-1.1
